fixLJ activator: activators of Burkholderia fixLJ two-component system, primary screen, B. multivorans, GFP reporter. z-score (no concentration beside the values). B. multivorans fixK-promoter GFP reporter, 18 h; active compounds read high. AID 1918990, 2023. hit rate 0.3% among 29,000;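 active = replicate mean overnight rise in green fluorescent reporter signal, 3 or more SD over negative controls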;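 also: score is relative to vehicle wells of the plate; 300 nL library stock went into each well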
Numbers without * were called inactive; & = joins results of further samples.

molecule,fixLJ activator
CS(=O)(=O)c1ccc(-c2ccc(C(=O)NCC3(O)CCNC3)cc2)cc1 (stereo not given),-0.78
Cc1ccc(CNC(=O)c2c(O)nc3ccccn3c2=O)cc1,0.14
CCOC(=O)c1cc2c(=O)n3ccccc3nc2n(CC2CCCO2)c1=NC(=O)c1ccc(C)cc1 (stereo not given),0.99
CC(=O)OC(COc1ccccc1)Cn1cnc2cc(C)c(C)cc21 (stereo not given),-2.6
COc1ccc(C2CC(=O)Oc3c2c(=O)n(C)c2ccccc32)c(OC)c1OC (stereo not given),-2.7
CCc1ccccc1NC(=O)Cn1c(=O)n(Cc2ccco2)c(=O)c2ccccc21,-0.86
O=S(=O)(NCCc1cnn(-c2ccccc2)c1)NCc1ccccc1,-1.5
Cc1cc(C(=O)Nc2ccc(NC(=O)CCc3ccccc3)cc2)nc(C)n1,-2.9
CSc1ccc(CCNC(=O)c2ccc3c(Cl)c4c(nc3c2)CCCC4)cc1,-0.91
CCCC12CN3CC(CCC)(CN(C1)C3c1ccc(OC(C)C)cc1)C2=O (stereo not given),-0.74
COc1ccc(NC(=O)CSc2nc(-c3cc(OC)c(OC)c(OC)c3)[nH]c2-c2ccc(F)cc2)cc1,-0.1
O=C(O)c1cccc(NC(=O)c2cccc(S(=O)(=O)Nc3cccc(F)c3)c2)c1,1.6
Cc1cccc(OCCCC(=O)Nc2sc3c(c2C(N)=O)CCC(C)C3)c1 (stereo not given),-0.41
COc1ccc(S(=O)(=O)N(CC(=O)Nc2cccc(C(F)(F)F)c2)c2ccc(C)cc2)cc1,0.48
COc1ccc(-c2noc(CN3CCN(c4ccccc4OC)CC3)n2)cc1OC,0.15
Cc1nc2sccn2c(=O)c1S(=O)(=O)NCc1ccccc1,0.87
O=C1CC(c2cccc(-n3cccn3)c2)c2c(nc3sccn23)CN1 (stereo not given),-0.83
CCOc1cc(C2C(C(=O)Nc3ccc(OC)cc3)=C(C)Nc3nc(SC)nn32)ccc1O (stereo not given),1.6
CCN1CCN(C(=O)Cn2ncc3c4ccccc4n(Cc4ccccc4F)c3c2=O)CC1,-2.2
CC(NC(=O)CN(c1ccc(Cl)cc1Cl)S(=O)(=O)c1ccccc1)c1ccccc1 (stereo not given),-0.87
Cn1c(Oc2ccc(Cl)cc2)nc2c1c(=O)n(Cc1ccc(F)cc1)c(=O)n2C,-1.9
CCc1ccc(NC(=O)c2cc(-c3cccs3)on2)cc1,-0.2
Cn1c(=O)n(C)c2cc(N3CCCC3)c(NC(=O)Nc3ccccc3)cc21,-0.91
Cc1ccc(C#N)c(N2CCC3(CCCN(C4CCOCC4)C3=O)C2)n1 (stereo not given),0.67
CCOc1ccc(/C=C/c2nc3ccccc3n2S(=O)(=O)c2cccc(Cl)c2)cc1,-0.54
COc1ccc(C)cc1NC(=O)c1ccc2c(=O)n3c(nc2c1)CCCCC3,-0.4
O=C(Cc1csc2ccccc12)NCc1ccccc1F,-1.1
C=CCN(Cc1nc(-c2ccccc2)no1)C(=O)c1cc(F)cc(C#N)c1,-0.38
Cc1nn(C(=O)c2ccc(Br)cc2)c(C)c1Sc1ccccc1,1.4
CCc1ccccc1N1CC(c2nc3ccccc3n2CCOc2ccc(Cl)c(C)c2)CC1=O (stereo not given),0.81
COc1cc2c(=O)n(CCc3ccccc3)c(=O)n(CC(=O)Nc3ccccc3)c2cc1OC,-0.28
COc1cccc(CNC(=O)CCc2nnc3n(CC(C)C)c(=O)c4ccccc4n23)c1,-1.4
Fc1ccccc1N1CCN(c2nnc(C(F)(F)F)c3nnn(Cc4ccccc4)c23)CC1,-1.3
Cc1ccc(C(=O)N2CCC3(CN(C)C(=O)CO3)C2)cc1OCCCN (stereo not given),-1.4
CCCc1ccc(-c2ccc(C(=O)Oc3ccc(Br)cc3)cc2)nc1,0.94
Cc1cccc(N2CCN(C(=O)C3CCC(CNS(=O)(=O)c4ccc(Br)s4)CC3)CC2)c1C (stereo not given),0.22
O=C(CSc1c2c(nc3ccccc13)CCC2)Nc1ccc(F)cc1F,-1
Cc1ccccc1NC(=O)c1c(C)oc2ccc(O)c(CN3CCN(C)CC3)c12,-0.5
CCN(CC)C(=O)/C(C#N)=C/c1cc(O)c(O)c([N+](=O)[O-])c1,-0.36
Cc1cc(N2CCCC(c3nnc(CN4CCC(O)CC4)n3C)C2)ncn1 (stereo not given),-0.28
Brc1ccc(-c2cc3c(N4CCN(c5ccccc5)CC4)nccn3n2)cc1,-2.1
O=C(c1ccc2c(c1)[nH]c(=O)n2C1CCC(O)CC1)N1CCc2ccccc2C1 (stereo not given),-3.3
COc1ccc(-c2cc(OC(=O)c3cccc(Cl)c3)c3c(C)oc(C)c3c(=O)c2)cc1,-0.04
COc1ccc(NC(=O)C(=O)NCC2(c3ccccc3)CCCC2)c(OC)c1,0.22
CN(Cc1ccccc1)C(=O)c1cn(C)c2ccc(S(=O)(=O)N(C)C3CCCCC3)cc2c1=O,-0.36
Cc1ccccc1C(=O)N(Cc1sccc1C)C1CCS(=O)(=O)C1 (stereo not given),-2.4
COc1ccccc1NC(=O)CN1CCCC(CNC(=O)c2ccsc2)C1 (stereo not given),-2
CCOc1ccc(/C=C/c2nc(C#N)c(NCc3ccccc3)o2)cc1,0.84
CCCOc1cccc(C2c3c(oc4ccc(F)cc4c3=O)C(=O)N2CCCN2CCOCC2)c1 (stereo not given),-1.1
CCCCCn1c(=O)[nH]c2cc(C(=O)NCc3ccc(C)cc3)ccc2c1=O,0.85
Cc1nc2ccc(C(=O)Nc3ccc(CC(=O)NC4CC4)cc3)cc2nc1C,0.7
CC1=C(C(=O)Nc2cccnc2)C(c2ccccc2Cl)n2nc(-c3ccccc3)nc2N1 (stereo not given),-2.5
COc1ccc(CNc2nc3ccccc3c3nc(-c4ccccc4)nn23)cc1,-1.2
CNS(=O)(=O)c1ccc(CCC(=O)N2CC(Oc3ccc(C)cc3)C2)cc1,0.11
CN(C)C(=O)c1ccc2c(c1)N(C)C(CC(=O)NCc1ccc3nsnc3c1)CO2 (stereo not given),-0.67
CCn1cc(C(=O)NCCc2ccc(Cl)cc2)c(=O)c2cc(S(=O)(=O)N3CCc4ccccc4C3)ccc21,-0.61
Cc1ccc(C)c(CSc2nc3ccncc3n2Cc2nc(-c3ccccc3Cl)oc2C)c1,-0.03
Cc1ccc(-c2nnc(Nc3ccc(Br)cc3)c3ccccc23)cc1S(=O)(=O)NCc1nc2ccccc2[nH]1,-0.36
O=C(C1CC1)N1CCCN(Cc2nnc(-c3cccc(F)c3)o2)CC1,0.85
COC(=O)CC1Oc2ccccc2-n2cc(-c3ccc(Cl)cc3)nc21 (stereo not given),0.54

Next part.
molecule,fixLJ activator
Cc1nc(C)n(CCCNC(=O)c2cc(CC(C)C)[nH]c(=O)n2)n1,0.8
CCCCN(CCCNC(=O)c1cc(Nc2ccc(OC)c(OC)c2)nc2ccccc12)c1ccccc1,0.98
COc1cc2c(cc1OC)C1(CCN(C(=O)C3CCCNC3)CC1)OCC2 (stereo not given),-1.3
Cc1nc(CCC(=O)N2CCCC2c2nc(-c3ccccc3)no2)n[nH]1 (stereo not given),0.28
NC(=O)C1CC=CCC1NC(=O)c1ccc(Cn2cccn2)o1 (stereo not given),1.4
Cc1ccc2nc3c(cc(C(=O)NCc4ccco4)c(=N)n3C(C)C)c(=O)n2c1,-3
Cc1ccc(N2CC(NC(=O)c3ccc(Cn4nc(C)cc4C)cc3)CC2=O)cc1 (stereo not given),1.1
N#Cc1ccnc(N2CCC3(CC2)OCCc2cc(C(=O)N4CCCC4)sc23)c1,-0.36
CCCOC1(C(F)(F)F)NC(=O)N(c2ccc(Cl)cc2)C1=O (stereo not given),-0.69
COc1cccc(-c2nc(CS(=O)(=O)CC(=O)Nc3ccc(C)c(Cl)c3)c(C)o2)c1,-1.2
Cc1ccc(C)c(OCCCC(C)(C)C(=O)O)c1,-1.2&-0.13
CC(=O)c1ccc(NC(=O)CC2Nc3cc(C)c(C)cc3NC2=O)cc1 (stereo not given),-0.24
CC(=O)c1ccc(NC(=O)Cn2c(=O)oc3cc(S(=O)(=O)N4CCCCC4)ccc32)cc1,0.34
Cc1cccc(S(=O)(=O)N2CCC[C@]3(CCCC3O)C2)c1 (stereo not given in full),-0.7
CCC(=O)c1cccc(-c2cccc(C(=O)NCCC(=O)N3CCCC3)c2)c1,0.34
Cc1ccc(C)c(Cn2c(-c3cccs3)nc3ccccc32)c1,0.76
Cc1ccc(-c2cc3ncc4c(n3n2)-c2ccccc2OC4)cc1,-0.77
CC[C@@]1(O)C(=O)OCc2c1cc1n(c2=O)Cc2cc3ccccc3nc2-1,-1.3
CCc1ccccc1NC(=O)c1ccc2c(SCC(=O)O)c3c(nc2c1)CCC3,-0.49
CCOc1cccc(CC(=O)N2CCc3c([nH]c4ccccc34)C2c2ccc(SC)cc2)c1OCC (stereo not given),1.8
Cc1ccc(Cn2c(=O)c3cccnc3n(CC(=O)Nc3cccc(C(F)(F)F)c3)c2=O)cc1,-3.4
CCN(CC)CCNC(=O)c1cc(S(C)(=O)=O)ccc1OC,-0.33
CCOc1ccc(NC(=O)C2CCN(S(=O)(=O)c3ccc4c(c3)oc(=O)n4C)CC2)cc1,-0.66
Cc1cn2c(=O)cc(COc3ccccc3NC(=O)c3ccccc3C)nc2s1,0.15
COc1ccc(C(=O)N2CCCN(c3noc(-c4ccccc4)n3)CC2)cn1,-1.2
CCOc1ccccc1OCCCn1c(-c2ccc(Cl)cc2)nc2ccccc2c1=O,-0.33
Cc1ccc(Nc2c(-c3c[nH]c4ccccc34)nc3ccccn23)cc1,4.6*
CCc1ccccc1NC(=O)C1CCCN(S(=O)(=O)c2cccc3nsnc23)C1 (stereo not given),-2.2
CCOC(=O)c1ccc(NC(=O)CC2Nc3ccccc3NC2=O)cc1 (stereo not given),-0.25
O=C(CCO)N1CC(O)C(Cc2ccc3ccccc3n2)C1 (stereo not given),0.8
COC(=O)N1CCC(c2nnc(CN3CCCCC3)n2C)CC1,0.29
COc1cc2nc(NCc3ccc(C)cc3)n3nc(-c4ccccc4)nc3c2cc1OC,-0.19
COc1ccc(CNC(=O)CN(C)c2nn3c(=O)cc(C)nc3s2)cc1,-1.2
CCOC(=O)c1ccc(NC(=O)CC2C(=O)N(c3cccc(C)c3)C(=O)N2CCOC)cc1 (stereo not given),-0.76
COCC(NC(=O)CCn1c(C)nc2ccccc21)c1ccnn1C (stereo not given),0.42
COc1cccc(CNC(=O)C(NS(=O)(=O)c2ccc3c(c2)oc(=O)n3C)C(C)C)c1 (stereo not given),-0.4
CCc1cccc(CC)c1NC(=O)c1c(C)oc2ccc(O)c(CN3CCOCC3)c12,0.39
CC(Sc1nccn1C)C(=O)Nc1ccccc1C#N (stereo not given),-1.7
CCc1cccc(OCC(=O)Nc2ccc(S(=O)(=O)Nc3ncccn3)cc2)c1,-3.7
Cc1ccc(N2C(=O)[C@@H]3CSC(c4ccc(C(F)(F)F)cc4)N3C2=O)cc1 (stereo not given in full),-0.04
CCC(=O)N1CCc2cc(Br)cc(S(=O)(=O)NCc3ccc(Cl)cc3)c21,-2.3
O=C(Nc1ccccc1C(F)(F)F)N1CCN(c2ccc3nnc(-c4ccc(F)cc4)n3n2)CC1,-2.1
COCCNC(=O)Cn1ncc2c(C)n(Cc3ccc(C)cc3)c(C)c2c1=O,-0.9
CCOc1ccc(-c2cn3c(n2)sc2cc(C(=O)N4CCCC(C)C4)ccc23)cc1 (stereo not given),-0.08
CCOc1ccc(NC(=O)c2ccc3c(=O)n4c(nc3c2)CCCCC4)cc1,1.6
O=C(CCc1nnc2n(Cc3ccccc3Cl)c(=O)c3ccccc3n12)Nc1ccc(F)c(F)c1,0.36
Cc1noc(C)c1CNC(=O)CCn1c(=O)[nH]c2ccccc21,0.13
Cc1cc(Cl)ccc1NC(=O)C1CCN(c2nnc(-n3c(C)ccc3C)s2)CC1,-0.05
Cc1cc(OCC(=O)Nc2cc(-c3nc4ncccc4o3)ccc2C)ccc1Cl,-2

In a second layout: results already given
CCc1cccc(OCC(=O)Nc2ccc(S(=O)(=O)Nc3ncccn3)cc2)c1
  fixLJ activator = -3.7
Cc1nc(C)n(CCCNC(=O)c2cc(CC(C)C)[nH]c(=O)n2)n1
  fixLJ activator = 0.8
CCOc1cccc(CC(=O)N2CCc3c([nH]c4ccccc34)C2c2ccc(SC)cc2)c1OCC (stereo not given)
  fixLJ activator = 1.8

Rewritten as labelled records: entries from further up
Molecule: CCOC(=O)c1ccc(NC(=O)CC2C(=O)N(c3cccc(C)c3)C(=O)N2CCOC)cc1 (stereo not given)
  fixLJ activator: -0.76

Molecule: CCC(=O)N1CCc2cc(Br)cc(S(=O)(=O)NCc3ccc(Cl)cc3)c21
  fixLJ activator: -2.3

Molecule: CCOc1ccc(-c2cn3c(n2)sc2cc(C(=O)N4CCCC(C)C4)ccc23)cc1 (stereo not given)
  fixLJ activator: -0.08

Molecule: CCc1cccc(OCC(=O)Nc2ccc(S(=O)(=O)Nc3ncccn3)cc2)c1
  fixLJ activator: -3.7

Source: PubChem BioAssay

A portion of the library; count on the stated rates, not on these rows.
